V1aR counter: counter-screen for oxytocin receptor agonists: human V1a receptor agonists; activation, % at 3 µM; actives 0.25% (n = 320,000); AID 2797; P37288; CHO-V1R cells, Fluo-8 calcium fluorescence, agonist mode; 0% DMSO, 100% 3 nM vasopressin;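 active = activation above the mean activation of all tested compounds plus 3 SD, per screening run, cut at about 20% in these data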;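 also: signal is peak over basal fluorescence ratio across a 100 second FLIPR read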
OXTR potentiate: potentiators of human oxytocin receptor; actives 0.061% (n = 320,000); CHO-OTR cells, Fluo-8 calcium fluorescence, potentiator mode; 0% = oxytocin EC15, 100% = EC100; P30559; activation, % at 3 µM; AID 2445;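 active = activation above that plate's cutoff, the mean activation of tested compounds plus 3 SD, cut at about 6.6% in these data, passing the limit was not always enough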;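 also: 100% uses oxytocin at 75 nM as the full agonist control; some results filed as inactive read as strong as hits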
Target sequence (P30559 whole entry, looked up): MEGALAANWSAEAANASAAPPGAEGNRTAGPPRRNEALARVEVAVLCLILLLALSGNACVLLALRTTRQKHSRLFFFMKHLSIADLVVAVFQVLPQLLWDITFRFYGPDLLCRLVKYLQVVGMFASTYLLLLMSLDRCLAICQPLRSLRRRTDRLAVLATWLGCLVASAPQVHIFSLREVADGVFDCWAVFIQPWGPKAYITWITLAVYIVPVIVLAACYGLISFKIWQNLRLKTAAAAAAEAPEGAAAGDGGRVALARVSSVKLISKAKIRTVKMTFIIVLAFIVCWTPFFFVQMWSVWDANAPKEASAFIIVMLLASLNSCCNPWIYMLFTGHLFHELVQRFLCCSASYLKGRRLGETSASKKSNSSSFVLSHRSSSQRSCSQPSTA
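Material: CHO-OTR cells, human receptor; compound dosing: single dose, 3.0 µM nominal final compound concentration; schedule: 6 min compound pre-incubation at room temperature, 100 s kinetic read; measured by: kinetic Fluo-8 calcium fluorescence; read-out basis: % activation vs EC15 and EC100 oxytocin; controls: EC15 oxytocin alone as 0%, 75 nM oxytocin as 100%; replicates: singlicate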
TAAR1 ag: human TAAR1 agonism; Q96RJ0; CHO RD-HGA16 TAAR1, Fluo-8 calcium fluorescence; vehicle wells 0%, saturating PEA agonist 100%; activation, % at 3 µM; actives 0.99% (n = 360,000); AID 624467;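 active = activation above the mean activation of all test compounds in the run plus 3 SD, cut at about 38% in these data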
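System: CHO RD-HGA16 cells carrying human TAAR1 plus Gα16; Incubation: 17-24 h seeding, 75 min 37 °C dye, 30 min RT; Measured by: Fluo-8 fluorescence, 5 s baseline then 140 s kinetic read; Control set: DMSO and PEA EC100; Replication: single well for each compound.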
TAAR1 antagonist: human TAAR1 antagonism; Q96RJ0; CHO RD-HGA16 TAAR1, Fluo-8 calcium fluorescence, antagonist; inhibition, % at 3 µM; actives 1.5% (n = 360,000);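 active = inhibition above a per-plate cutoff, the mean inhibition of test compounds on that plate plus 3 SD, cut at about 49% in these data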;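 also: 0% = DMSO plus EC80 beta-PEA response and 100% = DMSO alone without agonist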
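Test system: hTAAR1-expressing CHO RD-HGA16 cells, Gα16-coupled; Probe or stimulus: EC80 β-phenethylamine stimulus; Compound dosing: single nominal final test compound concentration of 3 µM; Timing: 140 s kinetic read after compound, 140 s after agonist; Signal: Fluo-8 calcium-sensitive fluorescence; Measure: % inhibition of agonist calcium response; Controls: DMSO and EC80 PEA controls.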
CHO parental Ca: signal in parental CHO cells, OX1R antagonist counter-screen. actives 0.63% (n = 330,000). AID 463079. parental CHO-K1, ATP-induced calcium, Fluo-8 fluorescence. inhibition, % at 5.6 µM;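 active = inhibition above that plate's mean sample inhibition plus 3 SD, cut at about 26% in these data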;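 also: 0% = ATP-challenged DMSO wells and 100% = DMSO wells without ATP; some compounds past the cut are filed as inactive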
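Test system: untransfected parental CHO cell line; also added: ATP stimulus; dosing: 5.6 µM, single dose; signal: calcium-sensitive Fluo-8 fluorescence; measure: percent inhibition of ATP-evoked calcium rise, normalized to controls; benchmarks: low control ATP plus DMSO, high control DMSO only; replication: one well per compound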
* hit, by the source's call; · = not tested or not shown; & = joins results of further samples. Only part of the results is shown (hit frequency here may not be typical).

SMILES	V1aR counter	OXTR potentiate	TAAR1 ag	TAAR1 antagonist	CHO parental Ca
[N-]=[N+]=CC(=O)OC[C@H](N)C(=O)O	1.0	-4	5	4	-5
O=C/C=C/c1ccccc1	0.9	-8	0	-5	-6
CC1CCC2C(C)C(=O)OC3OC4(C)CCC1C32OO4 (stereo not given)	0.6	2	-2	-7	-1
Oc1cccc2cccnc12	0.6	-3	0	2	-8
CN1C[C@H](CNC(=O)OCc2ccccc2)C[C@@H]2c3cccc4c3c(cn4C)C[C@H]21	7.5	-8	9	-11	-1
N[C@@H](Cc1ccc(N(CCCl)CCCl)cc1)C(=O)O	1.2	0	0	-1	-3
CC(C)CC(N(C)C)C1(c2ccc(Cl)cc2)CCC1 (stereo not given)	0.8&-0.8	3&-1	-1&-2	-8&17	-11&-11
COc1ccc2c(c1)C13CCCC[C@@H]1C(C2)N(C)CC3 (stereo not given in full)	1.5	-1	3	4	-1
CN(C)C(=O)Oc1cc(OC(=O)N(C)C)cc(C(O)CNC(C)(C)C)c1 (stereo not given)	0.5&3.0	-4&-11	1&1	-19&-3	-11&-2
C/C=C/c1ccc2c(c1)OCO2	0.3	-4	1	-6	8
C[n+]1ccc(-c2cc[n+](C)cc2)cc1	0.9	1	1&3	-11&-10	-5
CCCC[N+]1(C)C2CC(OC(=O)C(CO)c3ccccc3)CC1C1OC12 (stereo not given)	0.3	-4	2	-25	-7

Compound profiles (already shown). Order of values: V1aR counter	OXTR potentiate	TAAR1 ag	TAAR1 antagonist	CHO parental Ca
`CC(C)CC(N(C)C)C1(c2ccc(Cl)cc2)CCC1` (stereo not given) across the screens: 0.8&-0.8	3&-1	-1&-2	-8&17	-11&-11
`C[n+]1ccc(-c2cc[n+](C)cc2)cc1` across the screens: 0.9	1	1&3	-11&-10	-5

Given field by field: entries from further up.
Molecule: C/C=C/c1ccc2c(c1)OCO2
- V1aR counter = 0.3
- OXTR potentiate = -4
- TAAR1 ag = 1
- TAAR1 antagonist = -6
- CHO parental Ca = 8
Molecule: O=C/C=C/c1ccccc1
- V1aR counter = 0.9
- OXTR potentiate = -8
- TAAR1 ag = 0
- TAAR1 antagonist = -5
- CHO parental Ca = -6
Molecule: [N-]=[N+]=CC(=O)OC[C@H](N)C(=O)O
- V1aR counter = 1.0
- OXTR potentiate = -4
- TAAR1 ag = 5
- TAAR1 antagonist = 4
- CHO parental Ca = -5
Molecule: C[n+]1ccc(-c2cc[n+](C)cc2)cc1
- V1aR counter = 0.9
- OXTR potentiate = 1
- TAAR1 ag = 1&3
- TAAR1 antagonist = -11&-10
- CHO parental Ca = -5

A second format for part of the listing above.
| Structure | V1aR counter | OXTR potentiate | TAAR1 ag | TAAR1 antagonist | CHO parental Ca |
| --- | --- | --- | --- | --- | --- |
| CC1CCC2C(C)C(=O)OC3OC4(C)CCC1C32OO4 (stereo not given) | 0.6 | 2 | -2 | -7 | -1 |
| Oc1cccc2cccnc12 | 0.6 | -3 | 0 | 2 | -8 |
| CN1C[C@H](CNC(=O)OCc2ccccc2)C[C@@H]2c3cccc4c3c(cn4C)C[C@H]21 | 7.5 | -8 | 9 | -11 | -1 |
| N[C@@H](Cc1ccc(N(CCCl)CCCl)cc1)C(=O)O | 1.2 | 0 | 0 | -1 | -3 |

Next section
SMILES	V1aR counter	OXTR potentiate	TAAR1 ag	TAAR1 antagonist	CHO parental Ca
CCC1(c2ccccc2)C(=O)NC(=O)NC1=O	0.0	-5	0	-1	-1
CN1CC[C@]23c4c5ccc(O)c4OC2C(O)C=CC3[C@H]1C5 (stereo not given in full)	0.7	3	4	-12	-8
C=C1[C@H]2CC[C@H]3[C@]4(C)C[C@H](O[C@@H]5OC(CO)[C@@H](OSOOO)[C@H](OS(=O)(=O)O)[C@H]5OC(=O)CC(C)C)C[C@@H](C(=O)O)[C@H]4CC[C@]3(C2)[C@H]1O (stereo not given in full)	0.5	5	4	-8	-12
NCC(CC(=O)O)c1ccc(Cl)cc1 (stereo not given)	0.4	-9	3	-6	4
CN(C)[C@@H]1C(=O)C(C(N)=O)=C(O)[C@@]2(O)C(=O)C3=C(O)c4c(O)cccc4[C@@](C)(O)C3[C@H](O)C12 (stereo not given in full)	0.9&4.4	-7&-3	1	-11	3&-2
CNC1(c2ccccc2Cl)CCCCC1=O (stereo not given)	·	·	3	-15	·

From PubChem
